Vif A3G: inhibitors of Vif binding to APOBEC3G peptide, primary screen, biochemical, TR-FRET, GST-Vif 1-94, biotin-A3G peptide, dose response retest (AID 1117319). inhibition, %, or IC50 in µM where a hit was titrated. 260,000 tested, 0.57% active. TR-FRET GST-Vif / biotin-A3G peptide binding; higher % means a stronger effect; test concentration not given here; strong numbers were not always called active;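 active = above the screen mean plus three standard deviations and confirmed in dose response; inconclusive = results disagree or hit not tested in dose response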;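 also: Vif residues 1-94 fused to GST binding biotinylated APOBEC3G peptide 110-148; 0% = full assay without inhibitor and 100% = GST in place of GST-Vif; retest series ran down from 100 µM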
RanGTP-Imp inh: disruptors of Ran-importin-beta complex formation – biochemical, FRET, CFP-Ran, YFP-importin-beta, homogeneous, primary screen. cell-free CFP-Ran/YFP-importin-beta FRET ratio. inhibition, % (concentration not given with the values). 300,000 tested, 1.1% active;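 active = most replicates above 15%; inconclusive = exactly half above 15%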;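 also: 0% = DMSO wells and 100% = Ran loaded with GDP instead of GTP; wells of about 40 µL received 100 nL stock; the first replicate is given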
rRNA inh HTS: inhibitors of bacterial rRNA selective over humanized ribosomes; GFP signal change (wild-type ribosome), % (concentration not given with the values); 350,000 tested, 1.6% active; E. coli WT GFP vs humanized-ribosome RFP mutants, fluorescence, 24 h; active compounds read low; DMSO median 0, no signal -100; AID 720706;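 active = significant combined selectivity score with lowered wild-type GFP, culture density cut under 30%, mutant RFP and density less affected; inactive = any of these conditions unmet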; also: one replicate is shown; some compounds called inactive have numbers as strong as hits
T cruzi inh: blocks replication of Trypanosoma cruzi | T. cruzi beta-gal in NIH3T3, luminescence, 90 h | inhibition, % (no concentration beside the values) | 300,000 tested, 1.4% active | AID 1885;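 active = mean inhibition across valid replicates above about 55%, limit read from the data; inconclusive = mean below that limit but half or more replicates reach it; inactive = mean below it, under half of replicates reach it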;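 also: signal also drops with host cell toxicity which is not excluded here; 0% = plate median of DMSO wells and 100% = zero luminescence signal; higher percent means less beta-gal luminescence so fewer parasites; stock transfer was 50 nL into about 50 µL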
Calb FLC: C. albicans growth modulation with fluconazole; C. albicans CaCi-2 (fluconazole-resistant clinical isolate) + fluconazole, Alamar Blue growth, 48 h; growth inhibition, % (test concentration not listed); 300,000 tested, 0.57% active;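 active = most replicates above 75%; inconclusive = exactly half above 75%; inactive = most below 75%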;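 also: all wells also contain fluconazole at 8 µg/ml as a sub-toxic cotreatment; 0% = median of DMSO wells and 100% = median of geldanamycin control wells; wells of about 8 µL received 7.5 nL stock; the first replicate is given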
Beta cell apopt: beta cell apoptosis inhibition | INS-1E cytokine-induced death, ATP luminescence, 48 h; percent of positive-control rescue, neutral wells zero | protection from apoptosis, % (no concentration beside the values) | 300,000 tested, 0.8% active | AID 435005;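 active = all replicates at 75% or more, or half of them and the mean; inconclusive = half reach 75% but not the mean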;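 also: 0% = cytokine-treated negative control wells and 100% = positive control rescue; higher means more ATP so stronger rescue from cytokine killing; wells of about 40 µL received 100 nL stock; the first replicate is given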
Bfl-1 A1 inh: inhibitors of the anti-apoptotic protein A1, read as caspase activation; MEF A1-2A-BIM cells, Caspase-Glo 3/7 luminescence, 3 h; percent of clofoctol response, vehicle zero; caspase activation, % (no concentration beside the values); 330,000 tested, 0.066% active;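 active = over half of replicate activation scores above 10%, or exactly half above 10 with the replicate mean above 10; inconclusive = replicate mean below 10 yet half the replicates above 10; inactive = over half of replicates below 10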;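 also: wells of about 30 µL received 50 nL stock; many hits fall short of the cut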
AF4-AF9 inh: blocks AF4 peptide binding to human AF9. P42568. AlphaScreen, biotin-AF4 peptide binding to FLAG-AF9. inhibition, % at 10 µM. 350,000 tested, 0.47% active. AID 651704;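 active = every replicate reaching a set inhibition limit, whatever the replicate mean, cut at about 25% in these data; inconclusive = mean inhibition reaches that limit but some replicates miss it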;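 also: 0% = plate neutral control median and 100% = total signal loss; the record names both 10 and 1 µM as test concentration; the first replicate is given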
Target sequence (P42568 whole entry, looked up): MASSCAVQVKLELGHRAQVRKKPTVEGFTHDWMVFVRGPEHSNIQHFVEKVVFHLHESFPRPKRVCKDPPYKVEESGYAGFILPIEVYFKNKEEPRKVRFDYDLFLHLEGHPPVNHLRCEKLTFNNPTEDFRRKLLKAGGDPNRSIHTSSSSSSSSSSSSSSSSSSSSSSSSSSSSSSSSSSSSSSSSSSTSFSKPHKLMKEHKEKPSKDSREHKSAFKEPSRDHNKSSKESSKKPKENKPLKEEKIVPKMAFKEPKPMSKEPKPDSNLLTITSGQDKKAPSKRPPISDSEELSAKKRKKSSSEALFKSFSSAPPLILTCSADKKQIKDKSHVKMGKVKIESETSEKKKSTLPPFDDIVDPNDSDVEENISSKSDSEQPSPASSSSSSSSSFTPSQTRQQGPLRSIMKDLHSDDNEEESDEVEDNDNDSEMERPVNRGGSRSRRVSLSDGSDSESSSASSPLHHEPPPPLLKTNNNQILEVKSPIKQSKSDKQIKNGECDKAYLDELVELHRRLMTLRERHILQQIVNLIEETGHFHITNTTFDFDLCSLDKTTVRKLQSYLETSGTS
rRNA inh HTS OD600: second read-out of rRNA inh HTS, no call of its own (marks repeat the call); OD600 change, %; measured here: OD600 growth;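 optical density of the mix in the first replicate; 0 = DMSO median and -100 = no signal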
rRNA inh HTS RFP: recorded beside rRNA inh HTS, whose call it bears; RFP signal change, %; measured here: RFP humanized mutant strains;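 first replicate; 0 = DMSO median and -100 = no signal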
* hit, by the source's call; ? = inconclusive; . = not tested or not shown; & = joins results of further samples. An excerpt; the hit share may differ from the screen's.

no. | Structure | Vif A3G | RanGTP-Imp inh | rRNA inh HTS | rRNA inh HTS OD600 | rRNA inh HTS RFP | T cruzi inh | Calb FLC | Beta cell apopt | Bfl-1 A1 inh | AF4-AF9 inh
1 | COc1cccc(NC(=O)c2c(C)cc(C)cc2CC(C)(C)C(=O)O)c1 | 0.0% | ? | -4.1 | 5.8 | -0.8 | -4.6 | -1.6 | -4.9 | 0.5 | -2.8
2 | CC(Sc1nnc(COc2ccc(Cl)cc2)n1-c1ccccc1)C(=O)O (stereo not given) | . | -0.2 | 0.9 | 2.2 | -1.8 | -18.0 | 7.3 | . | -0.1 | -1.4
3 | CCn1cc(Cl)c(C(=O)Nc2cccc(CN3CCOCC3)c2)n1 | . | . | 7.5 | 9.1 | 4.4 | . | -20.2 | -0.3 | -0.1 | -1.2
4 | CC(=O)Nc1ccc(S(=O)(=O)NCCC(=O)OCc2nc(N)nc(Nc3ccccc3C)n2)cc1 | . | . | -1.9 | -1.2 | 0.7 | -7.1 | -4.4 | -0.7 | 1.0 | .
5 | O=C1CCCC/C=C\C[C@H](CC(=O)N(CCO)Cc2ccccc2)C(=O)N[C@@H](c2ccccc2)CO1 | . | . | -6.8 | -3.1 | -8.5 | . | . | -1.8 | 0.3 | -3.4
6 | CCN(CC)c1ccc(/C=c2\sc3nc4ccccc4n3c2=O)c(O)c1 | -0.4% | 134.7* | -15.4 | -24.0 | 32.3 | -1.5 | 54.9 | . | . | -25.1
7 | CCCCCOc1ccc2oc(=O)c3c(c2c1)CCCN3C(=O)CN1CCCC(C(=O)OCC)C1 (stereo not given) | 12.6% | 9.0 | . | . | . | 11.0 | 24.9 | -3.0 | -0.3 | .
8 | NC1=NC(=O)C(Cc2ccc(F)cc2)S1 (stereo not given) | -3.9% | 2.7 | 8.3 | 1.9 | 1.6 | -3.4 | 0.4 | -2.4 | -0.9 | -8.9
9 | Cc1cc(NC(=O)COC(=O)c2ccccc2S(=O)(=O)N(C)c2ccccc2)no1 | -7.2% | 3.0 | -32.6* | -21.9* | -1.4* | 4.1 | -1.4 | -9.5 | 0.4 | 1.3
10 | CCOc1cc(OCC)cc(C(=O)O)c1 | 1.0% | -1.4 | . | . | . | -10.0 | 4.2 | -1.3 | 0.3 | .
11 | COc1cc(C)c(C(C)C)cc1S(=O)(=O)n1ccnc1 | 14.1% | ? | 9.6 | 11.2 | 4.8 | 54.4 | -2.9 | . | 0.1 | 1.2
12 | CCOC(=O)Nc1cc(C(=O)OC)cc(C(=O)OC)c1 | -1.6% | -5.2 | . | . | . | -1.4 | 3.6 | -2.6 | -0.4 | .
13 | CS(=O)(=O)c1ccc2nc(NC(=O)c3ccc(S(=O)(=O)NCC4CCCO4)cc3)sc2c1 (stereo not given) | -21.0% | 0.0 | 6.6 | 10.9 | 2.0 | -10.4 | -6.2 | 0.5 | 0.6 | -2.9
14 | O=C(CN1C(=O)C2CCCCC2C1=O)Nc1nc(-c2ccc(F)cc2)cs1 (stereo not given) | 2.6% | ? | -24.8 | -33.4 | -6.0 | -8.8 | 0.7 | . | -0.1 | -1.2
15 | COc1cc(NC(=O)CSCc2ccccc2)c(C(=O)O)cc1OC | . | ? | -3.0 | 0.6 | -2.5 | -6.4 | -3.5 | -0.9 | 0.8 | -7.8
16 | CCC[N+](CC#CCO)(CC#Cc1ccccc1)CCC | . | 3.8 | 25.9 | -2.5 | 2.4 | -3.8 | 11.9 | 2.3 | 0.1 | 0.1
17 | O=C(O)c1cccc(N2C(=O)c3ccc4c5c(ccc(c35)C2=O)C(=O)N(c2cccc(C(=O)O)c2)C4=O)c1 | -7.0% | 0.8 | 6.8 | -0.8 | 2.2 | -5.2 | -2.8 | -3.4 | 0.1 | -3.4
18 | C=CCn1c(SCC(=O)NC(=O)NCC(C)C)nnc1C1CCCCC1 | -4.5% | -2.1 | . | . | . | 1.4 | -22.4 | -9.4 | -0.9 | .
19 | O=C(Nc1c2c(nc3ccccc13)CCCC2)c1ccccc1Cl | . | 0.7 | -8.7 | -4.3 | -3.0 | -0.1 | 12.6 | -1.5 | -0.6 | -1.8
20 | CN(Cc1ccc(OC(F)F)cc1)C(=O)c1ccccc1Sc1ccccc1C#N | . | 3.3 | -13.5 | -12.9 | -4.0 | 33.5 | 6.5 | -9.2 | 0.7 | 0.1
21 | CCOC(=O)c1ccc(NC(=O)CCNS(=O)(=O)c2ccc3c(c2)oc(=O)n3C)cc1 | 2.1% | 0.2 | . | . | . | -16.5 | -5.6 | 2.1 | -0.6 | .
22 | CC(=O)Cc1nsc(Nc2cccc(C)c2)n1 | 16.3% | . | -7.7 | 3.3 | 2.1 | . | -7.2 | -6.0 | -1.0 | -3.8
23 | O=C(COC(=O)c1ccc(-c2ccccc2)cc1)Nc1ccccc1-c1ccccc1 | -2.4% | -1.4 | . | . | . | 1.0 | -2.0 | -9.7 | 0.3 | .
24 | COc1ccccc1-c1nc2n(n1)C(c1cccs1)C(C(=O)Nc1cccnc1)=C(C)N2 (stereo not given) | 11.9%&-1.0% | -1.6 | . | . | . | 52.4 | 3.5 | . | -0.3 | .
25 | O=C1NC(=O)/C(=C\c2ccc(OCc3cccc([N+](=O)[O-])c3)cc2)N1 | 1.4% | -1.6 | -5.7 | -1.2 | -1.9 | -4.1 | ? | 8.4 | -0.6 | -0.3
26 | CC(C)(C)n1nnnc1C(c1cccs1)N(Cc1ccc(Cl)cc1)CC1CCCO1 (stereo not given) | 27.5% | 6.0 | 9.0 | 1.6 | -4.3 | 58.2* | -2.4 | 6.7 | 0.7 | .
27 | CCCCC1=NN2CCS(=O)(=O)N=C2S1 | 2.0% | 1.8 | 9.8 | 2.5 | -9.5 | -3.4 | -3.5 | -3.3 | 0.9 | -1.6
28 | COc1ccc(N2CCN(S(=O)(=O)CCNC(=O)c3ccc(Br)o3)CC2)cc1 | . | -1.4 | -7.1 | -2.0 | -0.2 | 0.7 | -3.8 | 1.9 | -0.1 | -0.1
29 | CCCCNC(=O)N(O)C1N(/N=C/c2ccc(N(C)C)cc2)C(=S)SC1(C)C (stereo not given) | 6.5% | 1.4 | 16.1 | 6.9 | 4.2 | -1.6 | -4.6 | -2.1 | 1.5 | 5.4
30 | COc1ccc(Cl)cc1S(=O)(=O)Nc1cccc(C(=O)O)c1 | -1.6% | 1.7 | . | . | . | -9.9 | 3.8 | -3.3 | 0.6 | .
31 | CC(=O)N(c1ccc(N(C(C)=O)S(=O)(=O)c2cccs2)cc1)S(=O)(=O)c1cccs1 | 8.3%&3.2% | 3.0 | . | . | . | -7.5 | -1.8 | . | 0.7 | .
32 | O=[N+]([O-])c1ccccc1S(=O)(=O)n1cnc2ccccc21 | 21.8% | 2.7 | 10.0 | 4.5 | 2.4 | -3.6 | 6.3 | -1.5 | -0.7 | -1.7
33 | Cc1ccc(-c2nnc(SCC#CCOC(=O)c3ccco3)o2)cc1 | -6.2% | 2.2 | . | . | . | -2.1 | -20.3 | . | -0.3 | .
34 | CC(C)(C)c1nnc(SCC(=O)c2ccccc2)n(N)c1=O | 8.6% | 7.2 | . | . | . | -8.9 | -0.4 | -1.0 | 0.3 | .
35 | Cc1ccc(-n2c(COc3ccccc3)n[nH]c2=S)cc1 | -13.2% | -3.9 | 3.5 | 11.1 | 1.3 | 4.6 | 0.7 | -0.4 | 0.4 | -3.1
36 | CC1Cc2ccccc2N1C(=O)Cn1cnc2ccccc21 (stereo not given) | . | -2.6 | -17.7 | -11.4 | -2.1 | -12.7 | 13.1 | -9.1 | 0.7 | -0.5
37 | Cc1ccc(Cl)cc1NC(=O)Nc1c(C)n(C)n(-c2ccccc2)c1=O | . | -1.4 | 13.7 | 11.9 | 3.0 | -5.8 | -3.3 | -2.7 | 0.7 | -2.8
38 | N#CC1=C(SCc2ccccc2)NC2=C(C(=O)CCC2)C1c1ccc2c(c1)OCO2 (stereo not given) | 13.4% | 3.9 | . | . | . | 13.3 | 15.3 | 3.6 | -0.8 | .
39 | Cc1ccc2nc(SCC(=O)Nc3ccc(F)cc3F)[nH]c2c1 | -5.5% | 0.2 | . | . | . | -15.6 | 4.0 | -16.2 | -1.3 | .
40 | Cc1ccccc1C(=O)N1CCC(C(=O)Nc2cc(C(F)(F)F)ccc2N2CCCC2)CC1 | -1.6% | 0.8 | -6.8 | -16.0 | -4.5 | 2.0 | 1.4 | 6.4 | 0.9 | ?
41 | CCC(C)(CC(=O)N(C)CCC#N)c1ccccc1 (stereo not given) | 32.5% | -3.0 | . | . | . | -11.5 | -1.6 | -2.2 | 0.7 | .
42 | CCOC(=O)c1nn2c(C(F)(F)F)cc(-c3ccc(OC)cc3)nc2c1Br | -21.4% | 6.3 | 2.6 | 7.0 | -0.1 | 8.1 | 2.3 | -0.3 | -0.1 | -0.1
43 | Cc1ccc(CONC(=O)c2ccc(Cl)cc2)cc1 | -0.5% | . | 6.2 | 17.5 | -1.2 | . | . | -5.2 | -0.7 | 2.3
44 | O=C(NNC(=S)Nc1ccccc1)NNC(=S)Nc1ccccc1 | 2.3% | -4.8 | 19.2 | 15.2 | -0.6 | 4.5 | -3.2 | -8.8 | -0.4 | -1.7
45 | O=C1CC(N2CCN(c3ccccc3O)CC2)C(=O)N1Cc1ccccc1 (stereo not given) | 8.5% | 2.4 | -9.1 | 7.4 | 1.0 | -6.3 | ? | -0.3 | -0.5 | -3.6
46 | CN(C(=O)COC(=O)c1cccc(S(=O)(=O)N2CCCCCC2)c1)C1CCS(=O)(=O)C1 (stereo not given) | 6.7% | 0.2 | 2.1 | 0.0 | -0.8 | -6.2 | -7.2 | -4.5 | 0.2 | -8.6
47 | Cc1cc(NC(=O)CSC2=NS(=O)(=O)c3cc(F)ccc3N2)no1 | -2.7% | ? | 1.3 | -0.5 | -2.2 | -7.4 | -4.4 | . | -0.2 | -27.3
48 | Cc1ccc(-c2nnn(CC(=O)N(CC(=O)NCC3CCCO3)c3ccccc3)n2)o1 (stereo not given) | 4.7% | -5.0 | 9.6 | 12.0 | -7.3 | -13.7 | -2.8 | . | 0.8 | 0.7
49 | COc1ccc(-c2cc(C(F)(F)F)c3c(n2)sc2c(O)cc(=O)[nH]c23)c(OC)c1 | 20.2% | -41.8 | . | . | . | -37.6 | 0.4 | 5.1 | -0.7 | .
50 | Cc1csc(=Nc2ccccc2)n1CCCN1CCCC1=O | 5.4% | -0.9 | 3.6 | 7.4 | -0.1 | 7.5 | -2.6 | -0.6 | -0.3 | -2.0
51 | N#C/C(=N\Nc1ccc(S(=O)(=O)N2CCOCC2)cc1)C(N)=S | . | -5.2 | 10.3 | 2.1 | -7.0 | 4.0 | 2.5 | -10.2 | 0.8 | 8.1

Bioassay records: PubChem BioAssay, several laboratories
